# Screens (PubChem BioAssay)
# Tg IFNy HTS – blocks Toxoplasma gondii growth in the presence of IFN-gamma; Toxoplasma gondii growth in IFN-gamma-treated host cells; stronger effect = lower value; reference of the scale not given here; AID 1259416; activity change, negative = inhibition, %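 (about 20 µM by stock and volumes)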; hit rate 3.8% among 69,000;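 active = below -70%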;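 also: host cells are HeLa cells infected with Toxoplasma gondii; parasite growth read as luciferase light; one replicate is shown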
# * = called active by the depositor. Some of the compounds tested; the hit share may differ from the screen's.
# The opening three entries (preview)
no.	molecule	Tg IFNy HTS
1	CCN1C(=O)CCc2cc(NC(=O)c3cccs3)ccc21	-36
2	COc1ccc(CNC(=O)CC2N=C3c4ccccc4N=C(SCc4ccc(F)cc4)N3C2=O)cc1 (stereo not drawn)	1
3	CCC(CC)NC(=O)c1ncn2c(C3CCN(Cc4cccnc4)CC3)ccnc12	-3

# All compounds of this part, previewed entries included:
no.	molecule	Tg IFNy HTS
1	CCN1C(=O)CCc2cc(NC(=O)c3cccs3)ccc21	-36
2	COc1ccc(CNC(=O)CC2N=C3c4ccccc4N=C(SCc4ccc(F)cc4)N3C2=O)cc1 (stereo not drawn)	1
3	CCC(CC)NC(=O)c1ncn2c(C3CCN(Cc4cccnc4)CC3)ccnc12	-3
4	Cc1ccccc1-c1nc(Cn2nnc(C(=O)Nc3cccc(Cl)c3)c2C)c(C)o1	26
5	COc1cc(CC(=O)O)ccc1OCc1ccccc1	-42
6	C[C@@H]1CN([C@@H](C)CO)C(=O)c2cc(NC(=O)Nc3ccc(C(F)(F)F)cc3)ccc2O[C@@H](C)CCCCO[C@H]1CN(C)CC1CCCCC1	412
7	COc1ccc2c3c([nH]c2c1)[C@H](CO)N(C(=O)Cc1ccccc1)CC31CCN(C)CC1	4
8	CSc1cccc(NC(=O)N2CCc3nc(CNC(=O)C4CCC4)n(C)c3C2)c1	-28
9	CCOC(=O)c1cn(C(=O)CCSc2ccc(OC)cc2)nc1N	-29
10	COc1cccc(C2(O)CCSc3ccccc32)c1 (stereo not drawn)	2
11	Cc1ccoc1C(=O)N1CCCC(c2nn(C)c(=O)n2-c2ccccc2)C1 (stereo not drawn)	19
12	Oc1cccc(Nc2ncnc3ccccc23)c1	-10
13	Cc1nc(N(C)C)ncc1C(=O)NC(C)c1cc2cc(Cl)ccc2o1 (stereo not drawn)	13
14	CCCc1cc(C(=O)NC2C=CS(=O)(=O)C2)cs1 (stereo not drawn)	0
15	Cc1nc(-c2cc(C(=O)NCCN(C)C)c3ccccn23)cn1-c1ccccn1	6
16	NC(=O)N1c2ccccc2CC(O)c2ccccc21 (stereo not drawn)	19
17	CN1C(=O)CC(c2ccncc2)C12CCN(C(=O)c1ccc[nH]1)CC2 (stereo not drawn)	-3
18	O=c1[nH]c2cc(C(F)(F)F)cc(Br)c2[nH]c1=O	-64
19	Cc1ccc(C2(C(F)(F)F)N=C3Sc4ccccc4N3C(=O)N2)cc1 (stereo not drawn)	-13
20	CN1CCCc2ccc(NC(=O)CCC(=O)N3CC(=O)Nc4ccccc43)cc21	22
21	O=C(Nc1ncccn1)c1ccc(Cl)cc1	-6
22	O=C(c1ccoc1)N1CCOC2(CCCN(c3cnccn3)C2)C1 (stereo not drawn)	46
23	CCS(=O)(=O)Nc1ccc2c(c1)C(=O)N(C)[C@@H]1CC[C@H](CC(=O)NCCCN3CCOCC3)O[C@H]1CO2	9
24	O=c1[nH]cnc2c(Br)cc(Br)cc12	26
25	CCn1c(C2CCN(C(=O)c3ccc4c(c3)nnn4C)CC2)nn(C)c1=O	6
26	CCc1ccccc1NC(=O)Cn1c(=O)cc(C(=O)NC)c2ccccc21	-21
27	O=C(C1CCOC1)N1CC2CC(CN(Cc3ccco3)C2)C1 (stereo not drawn)	2
28	O=C(O)CCC(=O)N1CC2(CCN(C(=O)c3cccnc3)C2)C1	6
29	O=C1CCC2(CCCO2)CCN1Cc1noc(C2CCCC2)n1 (stereo not drawn)	-36
30	COc1ccc(S(=O)(=O)N2CCC3(CC2)Nc2ccccc2-n2cccc23)cc1OC	37
31	Cc1ccccc1-c1noc(CNC(C)Cn2cncn2)n1 (stereo not drawn)	3
32	Cc1c[nH]c(CN2CCCC(CCc3ccccc3F)C2)c(C)c1=O (stereo not drawn)	-89*
33	Cc1nc([C@@H]2C[C@@H]3CN(Cc4ccc(C)s4)C[C@@H]3O2)n[nH]1	-12
34	COc1ccccc1CNC(=O)CCC1N=C2c3ccccc3N=C(SCc3cc(=O)n4ccccc4n3)N2C1=O (stereo not drawn)	15
35	CCN(C)c1ncnc2c1CCN(S(=O)(=O)c1cccs1)CC2	133
36	Cc1ccc(S(=O)(=O)N2CCC(C(=O)NCCc3csc(-c4ccccc4)n3)CC2)c(C)c1	2
37	COc1ccc(C)cc1NC(=O)Cn1c(=O)cc(-c2nc(C)no2)c2ccccc21	23
38	CCC[N+]12C3C[C@H](C4C(O)[C@]5(C[C@@H]41)c1ccccc1N(C)[C@@H]35)[C@H](CC)[C@H]2O (stereo partly drawn)	15
39	Nc1nc(F)nc2c1ncn2[C@@H]1O[C@H](COP(=O)(O)O)[C@@H](O)[C@@H]1O	26
40	Cc1ccc(C(=O)N2CCCC(Cc3ccc(C(=O)O)cc3)C2)cc1F (stereo not drawn)	0
41	CN(C)c1ccccc1C(=O)N1CCCC(CNC(=O)c2ccccc2Cl)C1 (stereo not drawn)	3
42	Cc1cccc(NC(=S)N2CCCCC2C)c1 (stereo not drawn)	2
43	O=C(CN1C(=O)CCc2cc(S(=O)(=O)N3CCCC3)ccc21)NCCc1ccccc1	-3
44	CN(C)CC1(O)CCN(C(=O)C2(c3ccc(Cl)cc3)CCC2)C1 (stereo not drawn)	0
45	Cc1ncc(CN(C)Cc2cnn(-c3ccccc3)c2)n1C	7
46	C=CCc1c(C)nc2ccc(C(=O)OCC)cc2c1Cl	-102*
47	O=C(CN1C(=O)CCc2cc(S(=O)(=O)N3CCCC3)ccc21)NCc1ccco1	-1
48	C[C@@H]1CN([C@H](C)CO)C(=O)c2cc(NS(C)(=O)=O)ccc2O[C@@H](C)CCCCO[C@@H]1CN(C)CC1CCCCC1	-9
49	C=CCC1(CC=C)CCCN1C(=O)c1ncc[nH]1	-4
50	Cc1ccc2c(C)c(C(=O)N3CCC4(CN(C)C(=O)O4)C3)oc2c1 (stereo not drawn)	4
51	Cn1cccc1C(=O)N1CCC2(CC1)CN(CC1CC1)C(=O)CO2	-46
52	COCCN1C(=O)CCc2cc(NS(=O)(=O)c3ccc(C)c(C)c3)ccc21	22
53	O=C1CCCN1CCCNc1nc(-c2ccc(Cl)cc2)nc2c1CNC2	-6
54	CNc1ccccc1C(=O)N(Cc1ccccc1)CC(C)CO (stereo not drawn)	0
55	O=S(=O)(c1cccnc1)N1CCCC2(C1)Nc1cccnc1NC2=NCc1ccccc1 (stereo not drawn)	61
56	C[C@@H]1CN([C@@H](C)CO)C(=O)CCCn2nncc2CO[C@H]1CN(C)C(=O)Nc1ccnc(N2CCOCC2)c1	-35

# The results go on.
no.	molecule	Tg IFNy HTS
57	COc1ccc(-c2ccc(NC(=O)c3cccnc3)c(C)c2)c(OC)c1OC	-23
58	CCOC(=O)c1[nH]c(=O)[nH]c1CSc1nc(C)cc(C)n1	-3
59	CCc1cn[nH]c1C1CCCN(C(=O)c2c(C)nn3c(C)cc(C)nc23)C1 (stereo not drawn)	1
60	CCOCC1CN(C(=O)Cc2ccccn2)Cc2c1cnn2CC (stereo not drawn)	-3
61	CCN(Cc1ccc(F)cc1)C(=O)c1ccc(O)cc1	-3
62	CC(C)C[C@@H]1COCc2cn(nn2)CC[C@H](C)C(=O)N1	-35
63	CC(C)(C)NC(=O)Cn1cc(C(=O)c2ccccc2F)c2ccnc(-c3cccnc3)c21	19
64	COc1ccc(-c2coc3c(O)c(O)c(OC)cc3c2=O)cc1	67

# Quoted from above, 2 compounds:
no.	molecule	Tg IFNy HTS
7	COc1ccc2c3c([nH]c2c1)[C@H](CO)N(C(=O)Cc1ccccc1)CC31CCN(C)CC1	4
8	CSc1cccc(NC(=O)N2CCc3nc(CNC(=O)C4CCC4)n(C)c3C2)c1	-28

# Next section
no.	molecule	Tg IFNy HTS
65	CSc1cccc(NC(=O)N2CCC(c3nc(C(=O)N(C)C)c(C)o3)CC2)c1	122
66	C=CCN(Cc1ccccc1)C(=O)C1(C(N)=O)CC1	91
67	O=C(Cc1coc2ccc3ccccc3c12)N1CCc2ccccc2C1	16
68	COc1cc2c(cc1OC)Cc1cc(OC)c(OC)cc1Cc1cc(OC)c(OC)cc1C2	-61
69	CCN1c2cc(C)ccc2-n2cccc2C12CCN(C(=O)Nc1ccc(Cl)cc1)CC2	252
70	CC(=O)C(C)(C)OC(=O)NCc1ccccn1	2
71	CN(C)c1ccc(CC2CCNCC2)nn1	-2
72	O=C(O)c1ccccc1Nc1cc(Cl)ccc1C(=O)O	24
73	O=C(Nc1ccc2c(c1)CN(Cc1ccccc1)C2)c1nc2ncccn2n1	-77*
74	N#Cc1ccccc1NC(=O)C(=O)NCCc1csc(-c2ccc(C(F)(F)F)cc2)n1	44
75	Cc1noc(C[C@@H]2COC[C@H]3CN(C(=O)c4ccccn4)C[C@H]23)n1	-9
76	CC1=NS(=O)(=O)NC(C)=C1CCC(=O)O	19
77	Cc1cccc(OC2CCN(C(=O)CCNS(C)(=O)=O)CC2)c1	1
78	O=C(c1ccccc1F)N1CCN(c2ccc(F)cc2)CC1	5
79	COc1ccccc1OCc1cc(C(=O)N2CCC(NC(C)=O)C2)n[nH]1 (stereo not drawn)	-3
80	O=C(NC1(C#Cc2nccs2)CCCCC1)C1CCN(CCc2ccccn2)CC1	26
81	CC(=O)NCCc1csc(C2CCCN(C(=O)Cc3ccccc3C)C2)n1 (stereo not drawn)	9
82	c1ccc(CNc2cc(-c3cccc(-n4cnnc4)c3)c3cc[nH]c3n2)nc1	-3
83	CC(=O)Nc1ccc2nc(-c3nccn3CCn3cccn3)ccc2c1	6
84	COc1cccc(CNC(=O)N2CCC3(CC2)CC(=O)c2ccccc2O3)c1	53
85	COc1ccc(-c2nc(N3CCc4ccccc4C3)c3ccccc3n2)cc1	63
86	CCOC(=O)c1c(C)c2c(=O)[nH]cnc2n1-c1ccccc1	-68
87	O=c1oc2cc(O)ccc2cc1-c1csc(-c2ccc([N+](=O)[O-])cc2)n1	9
88	Cc1ccc(S(=O)(=O)N2CCC3(CCC(C(=O)N4CCCC4)O3)CC2)cc1F (stereo not drawn)	-12
89	Cc1noc(C)c1S(=O)(=O)Nc1ccc2c(c1)CC(=O)N([C@@H](C)CO)C[C@@H](C)[C@H](CN(C)Cc1ccc(Oc3ccccc3)cc1)O2	-4
90	c1ccn2c(C3CCCN(Cc4cc5n(n4)CCNC5)C3)nnc2c1 (stereo not drawn)	-7
91	Cc1c(-c2ccccc2)n(CC(O)CN)c2ccccc12 (stereo not drawn)	-48
92	Cc1ccc(-c2cn3cc(C(=O)N4CCCN(C)CC4)ccc3n2)cc1C	89
93	c1cncc(-c2nnc3n2C2(CCCCC2)Cc2ccccc2-3)c1	1
94	COc1cccc2cc(C(=O)Nc3ccccc3-c3ccc(C)o3)c(=O)oc12	75
95	COc1cccc(C2(NC(=O)CN3C(=O)NC4C3N(C)C(=O)N4C)CCCC2)c1 (stereo not drawn)	-9
96	Cc1ccnc(C(NC(=O)c2cnc3cccc(C)n3c2=O)C2CC2)c1 (stereo not drawn)	-46
97	C[C@@H]1CCCCO[C@H](CN(C)C(=O)C2CCCCC2)[C@@H](C)CN([C@@H](C)CO)C(=O)c2cc(NS(=O)(=O)c3ccccc3)ccc2O1	61
98	CCCCCCNC(=O)NC(CC(=O)O)c1ccccc1 (stereo not drawn)	43
99	O=S(=O)(NCc1ccccc1)c1ccc(Nc2ccc(-c3ccccc3)nn2)cc1	-68
100	c1cnc(N2CCCC3(CC(n4cnnc4)CO3)C2)nc1 (stereo not drawn)	5
101	COc1ccc(CNC(=O)c2nnn(Cc3nc(-c4ccc(C)cc4)oc3C)c2C)cc1OC	-87*
102	CCCCNC(=O)c1ccc(-c2nc(CN3CCc4ccccc43)c(C)o2)cc1	-66
103	CCOC(=O)C1CCN(C(=O)c2ccc(-c3csc(CC)n3)cc2)CC1	215
104	CC(=O)c1cn(C)c(=O)[nH]c1=O	11

# 7 entries out of the list, arranged by number of heavy atoms, low to high:
no.	molecule	Tg IFNy HTS
104	CC(=O)c1cn(C)c(=O)[nH]c1=O	11
98	CCCCCCNC(=O)NC(CC(=O)O)c1ccccc1 (stereo not drawn)	43
96	Cc1ccnc(C(NC(=O)c2cnc3cccc(C)n3c2=O)C2CC2)c1 (stereo not drawn)	-46
95	COc1cccc(C2(NC(=O)CN3C(=O)NC4C3N(C)C(=O)N4C)CCCC2)c1 (stereo not drawn)	-9
99	O=S(=O)(NCc1ccccc1)c1ccc(Nc2ccc(-c3ccccc3)nn2)cc1	-68
101	COc1ccc(CNC(=O)c2nnn(Cc3nc(-c4ccc(C)cc4)oc3C)c2C)cc1OC	-87*
97	C[C@@H]1CCCCO[C@H](CN(C)C(=O)C2CCCCC2)[C@@H](C)CN([C@@H](C)CO)C(=O)c2cc(NS(=O)(=O)c3ccccc3)ccc2O1	61

# Going on with the list.
no.	molecule	Tg IFNy HTS
105	CCCCOc1ccccc1-c1cc2c(=O)n(Cc3nc(-c4ccc(OCC)cc4)oc3C)ccn2n1	140
106	CCN(CC)c1ccc2c(Oc3ccc(-c4ccccc4)cc3)cc(=O)oc2c1	-24
107	O=C(Nc1ccccc1)c1c(O)c2ccccc2n(-c2ccccc2)c1=O	-3
108	Cc1ccc(CC(=O)Nc2ccc(-c3nc(Cn4cc(C)cn4)c(C)o3)cc2)cc1	-48
109	O=C(c1ccc2nc[nH]c2c1)N1CCC2(CC1)Nc1cccnc1NC2=NC1CCCC1	107
110	Cc1c(N2CCCC2)ccc2c1NC(=O)CC2c1ccc2c(c1)nnn2C (stereo not drawn)	-7
111	CCOC(=O)c1nc(N(Cc2ccccc2)C(C)C)c2ccccc2n1	2
112	CCN1CCCC1CNC(=O)C1CCN(Cc2cc3ccccc3n2Cc2cccc(Cl)c2)CC1 (stereo not drawn)	-29
113	COc1cc(/C=C/CN2CC(=O)N(C3CCCCC3)CC(OCc3ccncc3)C2)ccc1O (stereo not drawn)	10
114	Cc1ccc(C(C(=O)NCc2ccc(S(N)(=O)=O)cc2)N(C)C)cc1 (stereo not drawn)	7
115	Cc1noc(C)c1NC(=O)Nc1ccc2c(c1)CC(=O)N([C@H](C)CO)C[C@@H](C)[C@H](CN(C)Cc1ccc(C(F)(F)F)cc1)O2	-29
116	CCn1c(C2CCCN(c3cnc4ccc(Cl)cc4n3)C2)n[nH]c1=O (stereo not drawn)	-2
117	COCc1cncc2c1CCN(C(=O)c1ccc[nH]1)C2	-66
118	NC1=NN=C(c2ccc3c(c2)OCCO3)CS1	-81*
119	O=C(c1cccs1)N1CCC[C@@H]1Cn1nnn(-c2cccs2)c1=O	-23
120	CS(=O)(=O)N1CCC(C(=O)NC2(c3ccc4c(c3)OCO4)CCCC2)CC1	-11
